# Bioassay records as filed in PubChem BioAssay.
# Yeast UUG start – modulators of yeast start codon fidelity, primary screen, whole organism, S. cerevisiae, single point, plate reader; activity score, % at 18.7 µM; AID 602363, 2012; 350,000 compounds, 0.13% hits; S. cerevisiae UUG-firefly luciferase reporter, luminescence/redox ratio;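 active = replicate mean at a twofold rise or more, about +100% in these data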;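 note: firefly luciferase made from a UUG start codon reports start codon fidelity; reporter light over untreated wells divided by growth signal over untreated wells; some hits fall short of that in this replicate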
# eIF4H FP inh – human eIF4H binding inhibitors, primary screen, translation initiation inhibitor project, biochemical, uHTS, fluorescence polarization; eIF4H fluorescence polarization binding assay; inhibition, % at 35 µM; 290,000 compounds, 0.94% hits; AID 2012, 2009;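 active = 50% or more with normal probe brightness, or confirmed in later tests; inconclusive = above 50% with abnormal brightness, or retests that disagree; inactive = below 50% or failed in later tests; about a fifth of its hits are not listed in these tables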;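 note: calls also rest on retests at 20 µM and on dose response follow-up; 0% = protein and probe with vehicle and 100% = probe without protein; strong numbers were not always called active; many hits fall short of the cut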
# PABP FP inh – PABP poly(A) RNA binding inhibitors, primary screen, biochemical, fluorescence polarization, uHTS; Polyadenylate-binding protein 1 (Homo sapiens), P11940; inhibition, % at 35 µM; 290,000 compounds, 1% hits;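 active = 50% or more with normal probe brightness, or confirmed in later tests; inconclusive = above 50% with abnormal brightness, or retests that disagree; inactive = below 50% or failed in later tests; about a fifth of its hits are not listed in these tables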;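 note: calls also rest on retests at 20 µM and on dose response follow-up; controls were probe without protein and protein plus probe with vehicle; some compounds called inactive have numbers as strong as hits; many hits fall short of the cut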
# HIV Env fusion – inhibitors of HIV-1 Env-driven cell-cell fusion, primary screen, HeLa-JRFL effector, CEM21 target cells, luciferase | inhibition, % at 12.3 µM | 360,000 compounds, 1.1% hits | AID 651610, 2012;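 active = mean replicate inhibition score of at least 50 and every replicate individually at or above 50; inconclusive = only one of the two criteria met; inactive = mean below 50 and not all replicates reaching 50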;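 note: 0% = plate neutral controls and 100% = maraviroc near 300 nM; one replicate is shown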
# CSC inhib – cancer stem cell viability inhibitors, primary screen, luminescence | 300,000 compounds, 1.1% hits | AID 2717, 2010 | cancer stem cell-like cells viability | inhibition, % at 7.5 µM;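 active = mean at 75% or more and at least half the replicates too; inconclusive = mean and replicates disagree; tested in HMLE shEcad cells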;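 note: 0% = median of negative and 100% = median of positive control wells; the first replicate is given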
# Rce1 inhib – yeast Rce1p protease inhibitors, primary screen, biochemical, fluorescence, cell-free homogeneous. CAAX prenyl protease 2 (Saccharomyces cerevisiae (strain ATCC 204508 / S288c)), Q03530. yeast membranes, quenched prenylated peptide cleavage fluorescence. calls only. 290,000 compounds, 0.27% hits. AID 2563, 2010;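 active = fall in fluorescence gain of 50% or more versus controls, with final raw signal at or below 3038400; inconclusive = same 50% fall but final raw signal above 3038400; inactive = fall in fluorescence gain under 50%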;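 note: plate controls were neutral control wells for no effect and wells lacking membranes for full effect; tested at 10 µM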
# Target sequence (Q03530 whole entry, looked up): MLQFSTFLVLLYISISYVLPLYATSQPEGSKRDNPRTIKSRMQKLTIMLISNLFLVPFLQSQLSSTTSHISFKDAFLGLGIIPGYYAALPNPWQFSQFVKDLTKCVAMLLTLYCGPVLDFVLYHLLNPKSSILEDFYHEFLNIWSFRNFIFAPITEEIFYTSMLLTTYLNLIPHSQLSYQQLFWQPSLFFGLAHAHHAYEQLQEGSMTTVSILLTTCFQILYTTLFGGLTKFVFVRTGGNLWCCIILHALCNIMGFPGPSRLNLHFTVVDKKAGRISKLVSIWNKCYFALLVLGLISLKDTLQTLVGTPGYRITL
# MT1-MMP act inh – blockers of MT1-MMP proenzyme processing, primary screen, HT1080 RFP-PRO-GFP cells, GFP/RFP fluorescence. AID 651647, 2012. Matrix metalloproteinase-14 (Homo sapiens), P50281. GFP/RFP ratio fluorescence, overnight; percent of plate control window, DMSO zero. 360,000 compounds, 0.061% hits. GFP/RFP ratio change, % at 20 µM;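 active = GFP/RFP ratio change of at least 30% with cell ATP level not reduced by more than half and red fluorescence within 50% of control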; note: strong numbers were not always called active
#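 Material – HT1080 RFP-PRO-GFP cells · Control set – DMSO wells and RFP-L50D-GFP cells · Incubation – overnight cell settling, then overnight compound exposure, 37 °C, 5% CO2 · Compound dosing – single-point 20 µM compound, 1% DMSO · Read-out – GFP/RFP fluorescence ratio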
# eIF4H FP inh retest – recorded beside eIF4H FP inh, whose call it bears; inhibition, %; compound at 20 µM; confirmation average;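 mean of two retest wells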
# PABP FP inh retest – recorded beside PABP FP inh, whose call it bears; inhibition, %; compound at 20 µM; confirmation repeats;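 mean of two retest wells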
# MT1-MMP act inh RFP – also measured in MT1-MMP act inh; calls as there; RFP signal change, %; measured here: RFP expression control read;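 0 = vehicle wells; hits needed this value within 50% of zero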
# Starred values were filed as active, the others as inactive; i = inactive; ? = inconclusive; / = not tested or not shown; + = active, no number. The list is partial; the hit share may differ from the screen's.
SMILES,Yeast UUG start,eIF4H FP inh,PABP FP inh,HIV Env fusion,CSC inhib,Rce1 inhib,MT1-MMP act inh,MT1-MMP act inh RFP,others
COc1ccc(C(NC(=O)c2cccnc2)c2cc(Cl)c3cccnc3c2O)cc1OC (stereo not drawn),-15,9,0,/,/,i,0,-4,
Cc1cc(C)cc(OCC(O)CN2CCN(Cc3ccc4c(c3)OCO4)CC2)c1 (stereo not drawn),/,2,4,8,-26,i,3,-2,
COc1ccc(S(=O)(=O)NC2CCc3ccccc32)cc1OC (stereo not drawn),9,-3,4,-1,-4,i,3,1,
COc1ccc(C(=O)Nc2oc(-c3ccccc3)c(-c3ccccc3)c2C#N)cc1,-10,-18,3,-73,45,i,-8,-7,
COc1cc([N+](=O)[O-])ccc1NC(=O)CSc1n[nH]c(C(C)C)n1,/,5,2,-2,-9,i,3,2,
Oc1ccc(-c2c(-c3ccsc3)sc3ccccc23)cc1,-11,5,9,18,4,i,-13,-22,
COc1cccc2c1nc(C)c1cc(C)oc12,-10,-12,-15,/,-2,i,3,4,
CCC1=NN2C(=N)/C(=C\c3ccc(OCCOc4ccc(NC(C)=O)cc4)cc3)C(=O)N=C2S1,-19,-4,0,6,3,i,-13,-8,
CCN(C(=O)COC(=O)c1cc(-c2ccc(C)o2)nc2ccccc12)C1CCS(=O)(=O)C1 (stereo not drawn),/,44,2,-9,-7,i,1,2,
O=C(O)c1ccccc1C(=O)N1CCN(c2ccccc2)CC1,3,-8,2,/,-2,i,-9,-2,
CC(C)N(Cc1nc(-c2ccccc2)no1)C(=O)c1ccc(Cl)cc1,-12,-5,0,33,14,i,-4,-4,
O=C(Nc1ccccc1)Nc1ccc(Cl)c(S(=O)(=O)N2CCOCC2)c1,0,-9,-3,8,6,i,4,-14,
c1ccc(-c2cnnn2-c2ccccc2)cc1,-16,9,3,1,-9,i,-1,0,
COC(=O)CSCC(=O)Nc1cc2c(cc1C(C)=O)OCO2,/,-9,-3,/,-3,i,-1,0,
Cc1ccc(S(=O)(=O)N2[C@@H](c3ccccc3)C(C(=O)O)=CC[C@H]2c2cccc(C)c2)cc1,0,/,/,-1,0,/,2,2,
Cc1cc(C)c(S(=O)(=O)NCc2ccccn2)c(C)c1,-22,-7,-1,-11,-22,i,-3,-3,
C=CC[C@H](CC(=O)OC(C)(C)C)C(=O)OC[C@H]1CCCN1C(=O)[C@H](CC=C)CC(=O)NCCO,11,/,/,2,/,/,1,2,
Cc1cc(C)nc(SCc2csc(N)n2)n1,-10,3,9,/,5,i,-4,2,
O=C(CN(Cc1ccccc1)S(=O)(=O)c1ccc(F)cc1)NCc1cccnc1,-24,-7,0,0,-11,i,-1,1,
CCOCCCNC(=O)c1cn(C)c2ccc(S(=O)(=O)N3CCCCC3)cc2c1=O,-12,-11,2,-9,0,i,4,-2,
CCCN1CCN(CCCNC(=O)c2ccc3nc(N4CCC(C)CC4)sc3c2)CC1,-40,-4,-13,-70,10,i,5,1,
N#C/C(=C/c1cn(-c2ccccc2)nc1-c1cccc(S(=O)(=O)N2CCOCC2)c1)C(=O)NCc1ccco1,/,-16,-4,16,-38,i,0,1,
CCc1c(O)c(-c2ccccc2)c(=O)n(-c2ccccn2)c1-c1ccccc1,/,6,-2,-7,-6,i,4,1,
O=C(CCCCCN1C(=O)c2ccccc2C1=O)Nc1ccc(F)cc1,-10,2,-3,0,-5,i,0,-5,
NC(=O)C1=C[C@@H](c2csc3ccccc23)C[C@@H](OCc2ccc(CO)cc2)O1,11,-2,8,20,-6,i,-5,-3,

# Remaining list, next part
SMILES,Yeast UUG start,eIF4H FP inh,PABP FP inh,HIV Env fusion,CSC inhib,Rce1 inhib,MT1-MMP act inh,MT1-MMP act inh RFP,others
Cc1ccccc1CSc1nc2n(n1)C(c1cccs1)C1=C(CCCC1=O)N2 (stereo not drawn),/,5,-3,/,-1,i,-25,-33,
COc1cccc(CC(NC(C)=O)C(=O)NC2CCN(c3c4c(nc5ncnn35)CCC4)CC2)c1OC (stereo not drawn),/,7,8,/,7,i,/,/,
CN(Cc1ccccc1F)C(=O)CNC(=O)Cc1cccc2ccccc12,0,18,-2,-4,-19,i,2,4,
CCC(=O)Nc1cccc(-c2nc3ccccc3o2)c1,-8,9,2,-156,-6,i,0,2,
COc1cc(C2/C(=C(/O)c3ccc(F)cc3)C(=O)C(=O)N2CCCC(=O)O)ccc1O (stereo not drawn),-21,4,3,-14,-18,i,5,12,
COc1ccc2c(c1)CC(N1CCN(C)CC1)c1cc(OC)ccc1S2 (stereo not drawn),/,/,/,-12,17,i,-8,-7,
O=C(c1ccc([N+](=O)[O-])cc1)N(c1ccccn1)c1ccccn1,/,-3,3,7,-4,i,-3,1,
CCS(=O)(=O)C1=NN2C(=N)/C(=C\c3ccc(SCc4ccco4)o3)C(=O)N=C2S1,/,?,-2,-44,/,i,-9,63,
CN(C)Cc1csc(NC(=O)Nc2ccccc2C(C)(C)C)n1,23,/,/,-8,/,/,7,-1,
COc1ccc2[nH]c(C(=O)N3CCN(Cc4ccccc4)CC3)cc2c1OC,-6,-8,-4,0,-3,i,-2,-2,
COCc1nnc(NC(=O)CC(C)C)s1,-5,-4,4,-11,6,/,2,5,
O=C(NCc1ccccc1)C(c1ccco1)N(C(=O)c1cnccn1)c1ccc(F)cc1 (stereo not drawn),1,-9,0,-44,-1,i,13,-5,
NC(=O)C(CC(=O)O)NC(=O)[C@@H]1CCOc2c(I)cc([N+](=O)[O-])cc2C(=O)N[C@@H](CO)C(=O)N[C@@H](Cc2ccc(O)cc2)C(=O)N1 (stereo partly drawn),/,18,2,/,3,/,/,/,
CN(Cc1ccco1)c1ncnc2ccc(-c3ccc4c(ccn4C)c3)cc12,0,/,/,-86,84*,/,4,-10,
Cc1[nH]c(=O)[nH]c(=O)c1CSCC(=O)OCC(=O)Nc1ccccn1,/,13,29,-7,-5,i,0,8,
CCCCCOC(=O)Nc1nnc(CCCCC)s1,-15,-4,-9,/,2,i,5,4,
Cc1ccc(S(=O)(=O)Cn2nnnc2C(C)N2CCN(C(=O)c3ccco3)CC2)cc1 (stereo not drawn),/,-5,-5,/,/,i,5,2,
CCCOP(=O)(c1ccc(N(C)C)cc1)C(O)c1ccc(N(C)C)cc1 (stereo not drawn),-6,1,-8,7,-7,i,4,4,
O=C(C1CC(=O)N(c2ccccc2)C1)N1CCC(c2nc3ccccc3[nH]2)CC1 (stereo not drawn),-6,/,/,-4,-8,i,-1,4,
O=C(Cc1ccccc1)NC(=S)Nc1ccc2oc(-c3ccccc3F)nc2c1,-11,1,0,/,2,i,0,3,
COc1cccc2[nH]c3c(N4CC(C)CC(C)C4)ncnc3c12 (stereo not drawn),/,-18,-14,/,/,i,/,/,
COC(=O)C(NC(=O)c1ccco1)(Nc1ccc(Br)cn1)C(F)(F)F (stereo not drawn),-2,-8,3,/,-7,i,-5,-1,
Cc1ccc(Cn2nnc3c(=O)[nH]c(C4CCN(C(=O)Cc5cccs5)CC4)nc32)cc1,19,-1,1,/,6,i,4,0,
CC(=O)c1ccc(NC(=O)[C@@H]2CCCN2C2=NS(=O)(=O)c3ccccc32)cc1,17,/,/,15,-9,/,-1,5,
CC(=O)Oc1c(C)cc(O)c2ccccc12,/,-3,4,/,4,i,/,/,

# At a glance, part of the list above.
SMILES,Yeast UUG start,eIF4H FP inh,PABP FP inh,HIV Env fusion,CSC inhib,Rce1 inhib,MT1-MMP act inh,MT1-MMP act inh RFP,others
Cc1ccccc1CSc1nc2n(n1)C(c1cccs1)C1=C(CCCC1=O)N2 (stereo not drawn),/,5,-3,/,-1,i,-25,-33,
COc1cccc(CC(NC(C)=O)C(=O)NC2CCN(c3c4c(nc5ncnn35)CCC4)CC2)c1OC (stereo not drawn),/,7,8,/,7,i,/,/,

# Next records:
SMILES,Yeast UUG start,eIF4H FP inh,PABP FP inh,HIV Env fusion,CSC inhib,Rce1 inhib,MT1-MMP act inh,MT1-MMP act inh RFP,others
CCOC(=O)c1ccc(NC(=O)C2=C(C)Nc3nc(CCCO)nn3C2c2ccc(OC)cc2)cc1 (stereo not drawn),-20,/,/,-18,-17,i,-6,0,
Cc1nc(C)c(CC(=O)N/N=C/c2ccc(O)cc2)c(=O)[nH]1,/,0,-8,/,-10,i,4,2,
CC(C)CN1CCC(=O)N([C@H](COc2ccccc2)c2ccccc2)CC1,8,-10,-8,-40,-4,i,1,-3,
COc1ccc(C2=NOC(C(=O)Nc3cc(C)on3)C2)cc1 (stereo not drawn),-14,0,-1,22,-6,i,-3,0,
NNC(=O)C(=O)NCCCN1CCOCC1,/,-10,4,15,1,i,-3,5,
CCOC(=O)c1nn(-c2ccc(OCC)cc2)c2nc(-c3ccco3)c(C#N)c(=O)n12,-19,-8,-1,/,-5,i,4,6,
Cc1ccc2[nH]c(=O)c3cc(C(=O)N(C)c4ccccc4C)sc3c2c1,-11,1,4,-3,/,i,3,-2,
CNc1ncnc2sc(-c3ccccc3)cc12,-14,0,-14,-19,-6,i,4,-2,
OCc1nc2nc(Cl)c(Cl)nc2[nH]1,-1,52*,13*,-4,-8,i,0,6,eIF4H FP inh retest=85*;PABP FP inh retest=74*
Cn1cnnc1SCC(=O)NCc1ccccc1,/,-6,-2,-5,-1,/,3,3,
O=[N+]([O-])c1cc(/C=N/N/C(=N/c2ccccn2)c2ccccn2)ccc1O,/,12,-2,-2,-8,i,0,0,
COCCCNC(=S)NCCNc1nc2cc(C)cc(C)c2cc1C#N,/,-6,-1,-4,-17,+,3,-3,
O=C(c1ccc(OC2CCN(CCc3ccccc3)CC2)cc1)N1CCCC(CO)C1 (stereo not drawn),/,80,44,-10,-12,i,5,4,eIF4H FP inh retest=3;PABP FP inh retest=2
O=C(NCc1ccc(Cl)cc1)N1CCOCC1,-1,-7,-7,3,-9,i,2,6,
Cc1cccc(NC(=O)c2ccc(C3SCC(=O)N3CCc3ccccc3)cc2)c1C (stereo not drawn),-4,0,-3,1,31,i,4,-15,
CCCNc1c(NC(=O)C2CCC(C)CC2)c(=O)oc2ccccc12 (stereo not drawn),-6,-4,0,0,-11,i,3,0,
S=c1[nH]nc(COc2ccccc2)n1/N=C/C(Cl)=C/c1ccccc1,/,2,6,-58,142*,i,4,-3,
COc1ccc(NC(=O)CSc2nc3ccccc3nc2N2CCCC2)cc1,-9,-6,4,14,-1,i,-6,-4,
CCN(CC(=O)NCc1ccc(Cl)cc1)C(=O)COc1ccc(Cl)cc1Br,/,/,/,22,-9,i,-1,-4,
CCOc1ccc(CSC2=NCCN2)cc1[N+](=O)[O-],/,-2,3,-17,32,i,9,1,
CC(C)NC(=O)c1cc(C2CCCCN2C(=O)c2ccc(C#N)cc2)on1 (stereo not drawn),-13,/,/,17,/,/,4,4,
Cc1ccccc1OC(C)C(=O)NCc1cccnc1 (stereo not drawn),-8,-2,5,44,-4,i,-1,-2,
COc1ccc(CNC(=O)[C@H](Cc2c[nH]c3ccccc23)NC(C)=O)cc1OC,-11,2,17,-5,-1,/,2,5,
